# Bioassay records from PubChem BioAssay.
# VDR inhibitor: blocks the human vitamin D receptor. 0.93% of 400,000 active. VDR-SRC2-3 peptide fluorescence polarization, 2 h. Potency, µM, inactives show max response, negative = inhibition, hits mostly inhibitors. P11473; active = well fitted inhibition curve with a large enough effect; inconclusive = small, poorly fitted or top-dose-only effect, or another doubt; inactive = no such curve, though single readings can be large or run the other way; note: series mostly up to about 120 µM
# Target sequence (P11473 whole entry, looked up): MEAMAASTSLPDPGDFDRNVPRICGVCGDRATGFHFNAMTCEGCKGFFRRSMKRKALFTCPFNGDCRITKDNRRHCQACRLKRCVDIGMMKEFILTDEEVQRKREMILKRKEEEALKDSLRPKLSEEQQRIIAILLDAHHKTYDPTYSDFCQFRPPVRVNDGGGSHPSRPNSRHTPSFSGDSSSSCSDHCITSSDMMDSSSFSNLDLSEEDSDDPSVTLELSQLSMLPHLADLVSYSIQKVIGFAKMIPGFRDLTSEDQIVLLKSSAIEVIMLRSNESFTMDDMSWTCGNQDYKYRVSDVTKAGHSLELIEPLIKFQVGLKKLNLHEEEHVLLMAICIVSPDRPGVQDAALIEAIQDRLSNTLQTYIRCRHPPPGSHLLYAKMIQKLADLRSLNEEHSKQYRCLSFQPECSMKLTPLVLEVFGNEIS
#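 Two reagent solutions held at 4 deg C in the dark were dispensed, compounds pinned at 23 nl, and the mixture incubated 2 h at room temperature. Read-out: fluorescence polarization of VDR–SRC2-3 peptide binding.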
# The depositor's hits bear a star; ? = inconclusive; & = joins results of further samples; [ ] = another dose, or the depositor's remark. % is set by controls: 0 for no effect and ±100 for the full control effect; potency is the fitted concentration of half-maximal effect. A portion of the library. The share of hits here may be higher or lower than overall.
SMILES,VDR inhibitor
COc1cccc(NC(=O)CSc2nnc(-c3ccc(C)cc3)o2)c1,-13%
Cc1ccc(CCNS(=O)(=O)c2ccc3c(c2)C(C(C)C)C(=O)N3)cc1 (stereo unspecified),1%
CCN(CC)CCCn1c(C)cc2c(c1=O)C(c1ccc(OC)c(OC)c1OC)C(C#N)=C(N)O2 (stereo unspecified),8%
O=C(O)c1ccc(Nc2c3ccccc3nc3ccccc23)cc1,8%
O=C(N/N=C/c1ccccc1)c1ccc(N2CCCC2=O)cc1,-6%
CCCC(=O)Nc1ccc2c(c1)nc1n2CCN(CCOC)C1,-14%
Cc1ccc(CCNC(=O)C23CN(Cc4ccccc4)CC2C(c2ccc([N+](=O)[O-])cc2)=NO3)cc1 (stereo unspecified),-20%
CCC(Sc1nc2ccsc2c(=O)n1-c1ccc(Cl)c(C)c1)C(=O)NCc1ccco1 (stereo unspecified),-11%
O=C(CCN1C(=O)c2ccccc2C1=O)C1=NN[C@@H]2C(=O)N(c3cccc(F)c3)C(=O)[C@H]12,16%
COc1cccc(CNC(=O)C(C)n2nc(C)n3c(cc4occc43)c2=O)c1 (stereo unspecified),-10%
CC(=O)Nc1ccc(S(=O)(=O)NCc2csc(C)n2)cc1,-19%
CC(C)CNS(=O)(=O)c1ccc(OCC(=O)Nc2ccc(F)cc2F)cc1,10%
O=C(c1cccc(F)c1)N1CCC[C@@]2(CCN(Cc3nccs3)C2)C1,1%
COc1ccc(-c2[nH]ncc2/C=N/NC(=O)c2cccc([N+](=O)[O-])c2)cc1OC,-1%
COC(=O)C1CCN(C(=O)CN(C)Cc2ccc(C(C)(C)C)cc2)CC1,10%
CCOC(OCC)P(=O)(C(C)C)C(C)C,6%
COc1ccc(N2C(=O)C(Cl)=C(N3CCOCC3)C2=O)cc1,28µM*
COc1ccc(C(=O)C2CCCN(Cc3cc(C)c(O)c(C)c3)C2)c(OC)c1 (stereo unspecified),-23%
O=C1CC(NS(=O)(=O)c2cccnc2)CN1c1ccc(Cl)cc1 (stereo unspecified),-18%
CN(Cc1ccc(Cl)cc1Cl)C(=O)CN1C(=O)NC2(CCCC2)C1=O,-5%
CCOC(=O)c1cc(COc2cc(Cl)cc(Cl)c2)on1,-1%
CC1CCN(C(=O)CSc2nnc(-c3ccncc3)n2C)CC1,2%
O=C(c1cccn2c(=O)c3cc(Cl)ccc3nc12)N1CCN(Cc2ccc3c(c2)OCO3)CC1,-8%
COCCCN1C(=O)c2ccc(C(=O)NCc3ccccn3)cc2C1=O,-9%
COc1ccccc1N1CCN(C(=O)CCn2c(=O)[nH]c3ccsc3c2=O)CC1,-1%

# Molecules shown so far with a furan ring, fused or not:
SMILES,VDR inhibitor
CCC(Sc1nc2ccsc2c(=O)n1-c1ccc(Cl)c(C)c1)C(=O)NCc1ccco1 (stereo unspecified),-11%
COc1cccc(CNC(=O)C(C)n2nc(C)n3c(cc4occc43)c2=O)c1 (stereo unspecified),-10%

# The main list resumes, starting 2 compounds before the break.
SMILES,VDR inhibitor
COCCCN1C(=O)c2ccc(C(=O)NCc3ccccn3)cc2C1=O,-9%
COc1ccccc1N1CCN(C(=O)CCn2c(=O)[nH]c3ccsc3c2=O)CC1,-1%
Cc1ccc(CN2C(=O)CCC2C(=O)NCC2CCCO2)cc1 (stereo unspecified),-12%
O=C(CC1SC(=O)N(Cc2ccccc2Cl)C1=O)Nc1nccs1 (stereo unspecified),9%
O=C(OCCc1cc2ccccc2c(=O)o1)c1ccco1,-13%
Cn1c(SCc2ccc(C#N)cc2)nnc1-c1ccccc1,1%
Cc1cc(C)n(CC(=O)c2ccc(Br)cc2)c(=O)c1C#N,1%
Cc1ccc(/C(N)=N/OC(=O)c2cccc(Cn3cc(C(F)(F)F)ccc3=O)c2)cc1,-2%
COc1ccc(C(C)=O)cc1CSc1nnc(-c2ccc(Cl)cc2)n1-c1ccccc1,-4%
Cc1nnc(SCc2nc(N)nc(Nc3ccccc3)n2)s1,-12%
COc1cccc(CNc2cccc3cccnc23)c1O,8%
C/C(=N/NS(=O)(=O)c1ccc(C)cc1)c1c[nH]c2ccccc12,12%
Cc1cc(S(=O)(=O)N2CCCCC2CCNC(=O)C(=O)NCC2CCCO2)ccc1F (stereo unspecified),-23%
Cc1ccc(S(=O)(=O)NCC(=O)OCC(=O)Nc2ncc(Cl)cc2Cl)cc1,-7%
COc1ccc(NC(=O)CSCC(=O)Nc2cc(Cl)ccc2N2CCOCC2)cc1,-1%
CC(NC(=O)CN(c1cccc(C(F)(F)F)c1)S(C)(=O)=O)c1ccccc1 (stereo unspecified),-2%
CCn1cc(CN2CCN(CCC(C)C)C(CCO)C2)c2ccccc21 (stereo unspecified),-6%
CCN1CCCC(OC(=O)c2cc(-c3ccccc3Cl)nc3ccccc23)C1 (stereo unspecified),-1%
O=C(Nc1nccs1)c1cc2sccc2n1Cc1ccc(Cl)cc1,-19%
C/C(=N/NC(=O)c1cccs1)c1cccc(N)c1,-9%
Cc1ccc(Sc2ncccc2COC(=O)Nc2ccccc2)cc1,?
CCC(=O)Nc1ccc(NC(=O)CSc2nnnn2C2CCCC2)cc1C,21%
Cc1cc(C(=O)CSc2nnnn2-c2ccccc2)c(C)n1CCc1ccccc1,-7%
O=C(c1ccccc1)N1CCN(C(=O)N2CCCCC2)CC1,10%
O=C(Nc1ccnn1C1CCN(C2CCCCC2)CC1)c1cccc(F)c1,4%
Cc1cnccc1CNC(=O)CC1C(=O)NCCN1CC(C)(C)C (stereo unspecified),-16%
CCOC(=O)CN1CCC(c2cc(-c3ccc(Cl)cc3)n[nH]2)CC1,26%
# Further compounds follow:
SMILES,VDR inhibitor
CC1(C)Cc2cccc(OCC(N)=O)c2O1,-4%
Cc1ccccc1Nc1nccc(N(C)C)c1C#N,19%
COc1ccc(/C=C(/NC(=O)c2ccccc2)C(=O)N/N=C/c2ccncc2)c(OC)c1,-7%
COc1ccc([N+](=O)[O-])cc1COc1ccc2c(-c3ccccc3)cc(=O)oc2c1,7%
COc1ccccc1-c1noc(-c2ccncc2)n1,14%
CC1Cc2ccccc2N1S(=O)(=O)c1cccc(C(=O)N2Cc3ccccc3CC2C(N)=O)c1 (stereo unspecified),-8%
c1ccc2c(c1)CC1(CCCC1)n1nnnc1-2,0%
COc1ccc(/C=C/C(=O)C(C)(C)C)cc1OC,-9%
CC(=O)c1cccc(NC(=O)c2oc3c(c2C)-c2nn(Cc4ccc(Cl)cc4)cc2CC3)c1,1%
COC(=O)C1=C(C)N(Cc2ccccc2)C(=NCc2ccc3c(c2)OCO3)N[C@H]1c1ccccc1,-15%
C[C@@H]1O[C@@H](O[C@@H]2[C@@H](O)[C@H](OCCc3ccc(O)c(O)c3)O[C@H](CO)[C@H]2OC(=O)/C=C/c2ccc(O)c(O)c2)[C@H](O)[C@H](O)[C@H]1O,-14%
Cn1cc(/C=C/c2cc[n+](C)cc2)c2cc(F)ccc21,-8%
Cc1ccccc1CNC(=O)c1ccc2nc(SCc3ccc(F)cc3)n(C)c2c1,-2%
COc1cc(/C=C/C(=O)Nc2cccc(S(=O)(=O)NC3=NCCCCC3)c2)ccc1OCC#N,-8%
COC(=O)c1nnn(CC(=O)NC(=O)Nc2cccc(C)c2C)c1C(=O)OC,?
Cc1cc(C)n(CC(O)CN2c3ccccc3Sc3ccccc32)n1 (stereo unspecified),-21%
COc1cc(/C=N/N=C/c2cc(OC)c(O)c(OC)c2)cc(OC)c1O,4%
CSc1ccc(CNC(=O)Cn2c(-c3cccs3)cc3cc(F)ccc32)cc1,9%
O=C(c1ccco1)N1CCN(c2ccc(S(=O)(=O)N3CCCC3)cc2)CC1,6%
CCN(CC)C(=O)[C@H]1CC(CC(=O)NCCC2=CCCCC2)C(=O)N2CCc3c([nH]c4ccccc34)[C@]12C (stereo partly specified),-12%
Cc1sc(NC(=O)C2CCCC2)c(C#N)c1C,?
CCOc1ccc(Br)cc1S(=O)(=O)Nc1ccc(C(=O)Nc2ccccc2OC)cc1,-19%
CCOC(=O)c1c(C)oc2nc(C)nc(NCCCN3CCN(c4cc(Cl)ccc4C)CC3)c12,24%
O=C(C1CCCN(Cc2ccc(F)cc2)C1)N1CCCCC1 (stereo unspecified),10%
COCCn1c(SCC(=O)N2CCCC2)nnc1-c1ccco1,-20%
# (next part)
SMILES,VDR inhibitor
CCCn1c(SCC(=O)NCc2ccco2)nc2c1c(=O)n(C)c(=O)n2C,-8%
CCOc1ccc2cc(C#N)c(SCC(=O)N3CCOCC3)nc2c1,6%
O=C(Nc1ccc2c(c1)OCO2)C1CC(=O)N(c2ccc(F)cc2)C1 (stereo unspecified),-6%
Cc1c(NC(=O)C(C)OC(=O)c2cccs2)c(=O)n(-c2ccccc2)n1C (stereo unspecified),16%
CCOC(=O)c1cc2sccc2n1CC(=O)Nc1ccc(OC)c(OC)c1,-1%
OCC1(Cc2cccc(F)c2)CCN(Cc2ccc3cccc(F)c3n2)CC1,10%
Cc1ccc(NC(=O)C2CCN(S(C)(=O)=O)CC2)cc1C,9%
CN(CCNS(=O)(=O)c1ccc2c(c1)oc(=O)n2C)Cc1ccccc1,-3%
CCC(=O)NC(c1ccccc1)c1c(OC(C)=O)ccc2ccccc12 (stereo unspecified),-4%
COc1ccccc1N1CCN(S(=O)(=O)CCNC(=O)CC2CCCCC2)CC1,1%
Cc1ccc(-n2nc3c(=O)n(C(C)C(=O)NCc4ccco4)nc(C)c3c2C)cc1 (stereo unspecified),34%&6%[activator]
Cc1ccccc1OCCCn1c(=O)sc2ccccc21,-1%
CNS(=O)(=O)c1ccc(NC(=O)Nc2ccc3c(c2)OCO3)cc1,13%
COc1ccc(Cn2cc([N+](=O)[O-])nc2C)cc1[N+](=O)[O-],-4%
Cn1nnnc1NCc1cccc(Cl)c1Cl,2%
CCCCCn1c(=O)[nH]c2cc(C(=O)NCc3ccc4c(c3)OCO4)ccc2c1=O,31%[activator]
COc1ccc(S(=O)(=O)n2nc(OC(=O)c3c(-c4ccccc4Cl)noc3C)cc2N)cc1,7%
CCc1ccc2ncc(C(=O)c3ccccc3)c(N3CCOCC3)c2c1,-31%
CCOc1ccc(N2C(=O)CC(Cc3ccc(Br)cc3)C2=O)cc1 (stereo unspecified),-1%
COc1cc(OC)cc(-c2cc3nc(C)c(CCC(=O)NCCc4cccc(C)c4)c(C)n3n2)c1,-13%
CN(CC(=O)NC(c1ccccc1)c1ccccc1)Cc1nc2ccccc2c(=O)[nH]1,6%
C=C1c2cc(CC)ccc2NC(=O)N1c1ccc(C)cc1,-16%
NS(=O)(=O)c1ccc(CNC(=O)Cn2nc(C(F)F)cc2C(F)F)cc1,18%
CCc1ccccc1-n1cnc2cc(C(=O)O)ccc21,4%
Clc1ncc(C#Cc2ccccc2)c2ncncc12,28µM*

# Another view of some results above.
SMILES	VDR inhibitor
COc1ccc(S(=O)(=O)n2nc(OC(=O)c3c(-c4ccccc4Cl)noc3C)cc2N)cc1	7%
CCc1ccc2ncc(C(=O)c3ccccc3)c(N3CCOCC3)c2c1	-31%
CCOc1ccc(N2C(=O)CC(Cc3ccc(Br)cc3)C2=O)cc1 (stereo unspecified)	-1%
COc1cc(OC)cc(-c2cc3nc(C)c(CCC(=O)NCCc4cccc(C)c4)c(C)n3n2)c1	-13%
CN(CC(=O)NC(c1ccccc1)c1ccccc1)Cc1nc2ccccc2c(=O)[nH]1	6%
C=C1c2cc(CC)ccc2NC(=O)N1c1ccc(C)cc1	-16%

# (continued)
SMILES,VDR inhibitor
CCOC(=O)CN(c1ccccn1)S(=O)(=O)c1ccc(OC)cc1,5%
CCCC(O)(CCC)C(=O)NNc1ccccc1,-8%
COC(=O)c1cc(C)ccc1/C=C1/Cc2c(C)cc(C)cc2C1=O,-6%
CN(C)CCNC(=O)CCCNC(=O)Cn1cnc2sc3c(c2c1=O)CCCC3,-2%
O=C(Nc1ncc2c(n1)CC(c1ccccc1)CC2=O)c1ccco1 (stereo unspecified),7%
Cc1oc(-c2ccccc2F)nc1CN1CCC(C(=O)NCCc2ccc(Cl)cc2)CC1,-17%
Cc1ccc(Cn2nc(C)c(NC(=O)CSc3n[nH]c(C)c3[N+](=O)[O-])c2C)cc1,-12%
CC(=O)c1cccc(NS(=O)(=O)c2csc(C(N)=O)c2)c1,-7%
COc1ccccc1Oc1nc([N+](=O)[O-])nn1CC(N)=O,-1%
Brc1ccccc1-c1ccccc1,1%
COc1ncccc1-c1nnn(-c2ccccc2Br)n1,-13%
O=C1c2ccccc2C(Nc2ccccc2)N1Cc1ccc2c(c1)OCO2 (stereo unspecified),-3%
CN(C)N1C(=O)CC(N2CCCC2)C1=O (stereo unspecified),0%
CCCNS(=O)(=O)c1ccc(OCC(=O)N2CCN(c3ccccc3)CC2)cc1,-11%
Cc1ccccc1-c1nc(-c2ccc(NC(=O)c3cccs3)cc2)no1,-4%
Cc1ccc(C(=O)Nc2cccc(C(F)(F)F)c2)cc1NC(=O)c1ccno1,1%
CCOC(=O)N1CCC(N2C(=O)c3ccccc3C2Nc2cccnc2)CC1 (stereo unspecified),-12%
O=C(COC(=O)COc1ccc(Cl)cc1)NCc1cccs1,-9%
Cc1ccsc1C(=O)NCCc1c[nH]c2ccccc12,-10%
O=C1C=C(c2ccc3ccccc3c2)C[C@@H](c2ccc(F)cc2)C1,-7%
CCOC(=O)[C@@H]1[C@H]2COc3ccc(Br)cc3[C@H]2N2C(=O)N(c3cccc(Cl)c3)C(=O)[C@]12C,-14%
Cc1cc(N=CC2=C(O)CCCC2=O)no1,-15%
COc1ccc2c(c1)c1nnc(SC)nc1n2C,-3%
CN=c1oc2ccc(Cl)cc2cc1C(N)=O,10%
CCOC(=O)C1(Cc2cccc(OC)c2)CCCN(C(=O)c2ccccc2C)C1 (stereo unspecified),-11%

# Compounds listed so far that contain a CF3 group, in the order listed:
SMILES,VDR inhibitor
Cc1ccc(/C(N)=N/OC(=O)c2cccc(Cn3cc(C(F)(F)F)ccc3=O)c2)cc1,-2%
CC(NC(=O)CN(c1cccc(C(F)(F)F)c1)S(C)(=O)=O)c1ccccc1 (stereo unspecified),-2%
Cc1ccc(C(=O)Nc2cccc(C(F)(F)F)c2)cc1NC(=O)c1ccno1,1%
